Source: PubChem (several laboratories)
A1 inh: inhibitors of the anti-apoptotic protein A1, read as caspase activation; actives 0.066% (n = 330,000); caspase activation, % (no concentration beside the values); MEF A1-2A-BIM cells, Caspase-Glo 3/7 luminescence, 3 h; percent of clofoctol response, vehicle zero;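 active = over half of replicate activation scores above 10%, or exactly half above 10 with the replicate mean above 10; inconclusive = replicate mean below 10 yet half the replicates above 10; inactive = over half of replicates below 10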;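 note: wells of about 30 µL received 50 nL stock; many hits fall short of the cut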
T cruzi repl: blocks replication of Trypanosoma cruzi | T. cruzi beta-gal in NIH3T3, luminescence, 90 h | inhibition, % (concentration not given with the values) | actives 1.4% (n = 300,000);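 active = mean inhibition across valid replicates above about 55%, limit read from the data; inconclusive = mean below that limit but half or more replicates reach it; inactive = mean below it, under half of replicates reach it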;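 note: signal also drops with host cell toxicity which is not excluded here; 0% = plate median of DMSO wells and 100% = zero luminescence signal; higher percent means less beta-gal luminescence so fewer parasites; stock transfer was 50 nL into about 50 µL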
RanGTP-Imp inh: disruptors of Ran-importin-beta complex formation – biochemical, FRET, CFP-Ran, YFP-importin-beta, homogeneous, primary screen. cell-free CFP-Ran/YFP-importin-beta FRET ratio. inhibition, % (no concentration beside the values). actives 1.1% (n = 300,000). AID 2216;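 active = most replicates above 15%; inconclusive = exactly half above 15%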;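 note: 0% = DMSO wells and 100% = Ran loaded with GDP instead of GTP; wells of about 40 µL received 100 nL stock; the first replicate is given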
AF4-AF9 inh: MLL-AF4/AF9 protein interaction inhibition. AlphaScreen, biotin-AF4 peptide binding to FLAG-AF9. inhibition, % at 10 µM. actives 0.47% (n = 350,000). AID 651704. P42568;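 active = every replicate reaching a set inhibition limit, whatever the replicate mean, cut at about 25% in these data; inconclusive = mean inhibition reaches that limit but some replicates miss it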;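 note: 0% = plate neutral control median and 100% = total signal loss; the record names both 10 and 1 µM as test concentration; the first replicate is given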
Target sequence (P42568 whole entry, looked up): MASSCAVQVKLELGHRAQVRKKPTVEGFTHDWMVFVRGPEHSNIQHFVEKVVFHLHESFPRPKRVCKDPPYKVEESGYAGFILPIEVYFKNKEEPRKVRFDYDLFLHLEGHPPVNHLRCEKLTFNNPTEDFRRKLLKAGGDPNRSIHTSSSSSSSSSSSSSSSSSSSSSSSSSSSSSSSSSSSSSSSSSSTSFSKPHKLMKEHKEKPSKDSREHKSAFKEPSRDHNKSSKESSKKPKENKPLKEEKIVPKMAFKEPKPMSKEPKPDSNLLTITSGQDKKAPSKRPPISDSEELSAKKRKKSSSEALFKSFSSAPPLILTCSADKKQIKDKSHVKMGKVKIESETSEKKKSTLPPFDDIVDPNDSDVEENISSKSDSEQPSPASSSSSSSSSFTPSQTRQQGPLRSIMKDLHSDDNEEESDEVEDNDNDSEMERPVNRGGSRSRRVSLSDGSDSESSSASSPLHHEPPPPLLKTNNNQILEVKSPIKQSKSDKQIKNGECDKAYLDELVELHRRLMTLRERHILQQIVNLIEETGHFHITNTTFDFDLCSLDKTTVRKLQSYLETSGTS
LANA-H2B inh: blocks KSHV LANA binding to histone H2A/H2B; actives 0.6% (n = 320,000); inhibition, % (test concentration not listed); Q9QR71; AID 2629; cell-free LANA-H2A/H2B peptide, fluorescence polarization; in the data active = inhibition mostly above about 10%, no sharp cut-off; inactive = mostly below about 6.7%;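 note: stock transfer was 7.5 nL into about 10 µL; 0% = median of vehicle wells and 100% = median of positive control wells; one replicate is shown; the record names a cut of 25% in any replicate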
Beta cell apopt: beta cell apoptosis inhibition. AID 435005. INS-1E cytokine-induced death, ATP luminescence, 48 h; percent of positive-control rescue, neutral wells zero. protection from apoptosis, % (concentration not given with the values). actives 0.8% (n = 300,000);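 active = all replicates at 75% or more, or half of them and the mean; inconclusive = half reach 75% but not the mean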;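 note: 0% = cytokine-treated negative control wells and 100% = positive control rescue; higher means more ATP so stronger rescue from cytokine killing; wells of about 40 µL received 100 nL stock; the first replicate is given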
Vif A3G: inhibitors of Vif binding to APOBEC3G peptide, primary screen, biochemical, TR-FRET, GST-Vif 1-94, biotin-A3G peptide, dose response retest (AID 1117319). TR-FRET GST-Vif / biotin-A3G peptide binding; higher % means a stronger effect; test concentration not given here; strong numbers were not always called active. one-dose inhibition, %; IC50 in µM for titrated hits. actives 0.57% (n = 260,000);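 active = above the screen mean plus three standard deviations and confirmed in dose response; inconclusive = results disagree or hit not tested in dose response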;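 note: Vif residues 1-94 fused to GST binding biotinylated APOBEC3G peptide 110-148; 0% = full assay without inhibitor and 100% = GST in place of GST-Vif; retest series ran down from 100 µM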
Calb FLC: C. albicans growth modulation with fluconazole. C. albicans CaCi-2 (fluconazole-resistant clinical isolate) + fluconazole, Alamar Blue growth, 48 h. growth inhibition, % (concentration not given with the values). actives 0.57% (n = 300,000). AID 1979;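 active = most replicates above 75%; inconclusive = exactly half above 75%; inactive = most below 75%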;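 note: all wells also contain fluconazole at 8 µg/ml as a sub-toxic cotreatment; 0% = median of DMSO wells and 100% = median of geldanamycin control wells; wells of about 8 µL received 7.5 nL stock; the first replicate is given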
* = called active by the depositor; ? = inconclusive; nt = not tested or not shown.

SMILES	A1 inh	T cruzi repl	RanGTP-Imp inh	AF4-AF9 inh	LANA-H2B inh	Beta cell apopt	Vif A3G	Calb FLC
O=C(Nc1ccc(Nc2ccccc2)cc1)c1c(Cl)cccc1Cl	0.9	14	1.8	4.4	0.6	nt	nt	1
CCOc1ccc(NC(=O)CN(C)C(=O)c2ccc3c(c2)C(=O)N(CCC(C)C)C3=O)cc1OCC	-0.3	-2	-2.4	-1.6	2.4	-3	nt	-1
CC(C)CCN1C(=O)c2ccc(C(=O)Nc3ccc(Br)cc3C(=O)O)cc2C1=O	0.9	0	5.3	-1.1	-1.6	nt	-4%	82*
COc1cccc2cc(C(=O)NCCN3CCOCC3)oc12	0.1	0	-1.6	0.3	2.3	-3	nt	2
CN(C)c1cccc(C(=O)NNC(=S)NC2CCCC2)c1	0.2	-13	?	0.7	1.5	-1	-6%	8
CCCC(=Nc1ccccc1OC)C1=C(O)CC(c2ccccc2)CC1=O (stereo not drawn)	0.0	-7	-0.3	2.6	-8.1	-1	-6%	4
CCNC(=S)NNC(=O)c1csc2c1CCCC2	0.6	-6	2.4	10	4.1	-6	?	-4
COC(=O)C(NC(C)=O)(Nc1nc2c(C)cc(C)cc2s1)C(F)(F)F (stereo not drawn)	0.5	-8	2.5	nt	-4.7	6	-2%	5
COc1cc(/C=C(/C(=O)O)c2ccc(-c3ccccc3)cc2)cc(OC)c1OC	-0.2	39	-8.2	1.3	3.8	8	nt	14
COc1cc(-c2cc(C(=O)Nc3cccc(S(=O)(=O)N(C)C)c3)c3ccccc3n2)cc(OC)c1OC	1.6	-22	1.4	3.1	2.2	nt	nt	3
Cc1cnc(NC(=O)CN2CCN(c3ccccn3)CC2)s1	0.0	-26	-0.6	nt	-2.8	79*	1%	5
c1ccc(SCCCCN2CCOCC2)cc1	0.5	18	?	0.6	-0.3	-3	nt	8
CNC(=O)CCC(=O)Nc1ccc(C(=O)OC)cc1	0.7	4	-3.0	nt	-7.1	-7	-1%	-1
Cc1ccc(N2C(=O)C3CCC(C)(C2=O)C3(C)C)cc1 (stereo not drawn)	-0.3	-12	2.2	-2.1	-2.9	-3	?	-2
Cc1ccc2oc(-c3ccc(NC(=O)CC(C)C)cc3)nc2c1	-2.6	7	3.0	4.5	6.0	6	22%	-9
COc1cccc(C(=O)NCC(=O)N/N=C(\C)Cc2ccccc2)c1	-0.8	0	7.3	1.1	-3.0	1	nt	-13
Oc1ccc(C2C=C(c3ccc(F)cc3)Nc3ncnn32)cc1 (stereo not drawn)	nt	2	-12	nt	nt	nt	14%	5
N#CCn1c(C2CCCCC2)nc2ccccc2c1=O	1.3	-16	8.9	nt	-2.5	nt	?	0
Cc1ccc(S(=O)(=O)NCCn2nc(C)cc2C)cc1	0.4	4	-2.2	-20	3.9	-13	nt	5
Cc1ccc(S(=O)(=O)CC(=O)NC2CC2)cc1	0.6	-3	8.7	nt	-1.7	nt	2%	-1
N#CC(C#SN)=C1CCCCC1	-1.7	8	2.6	nt	-5.1	-5	5%	-9
CCN(c1ccccc1)S(=O)(=O)c1ccc(C(=O)Nc2ncccc2O)cc1	0.3	3	5.6	-3.6	2.2	1	nt	-6
COC(=O)c1sccc1NC(=O)CN(C)NS(=O)(=O)c1ccc(Cl)cc1	0.8	11	0.9	nt	1.8	-7	-5%	-8
COCC(=O)Nc1cccc(-c2ccc3nncn3n2)c1	-2.8	-9	1.9	-2.3	3.4	0	-4%	5
O=C(Nc1cccc(-c2cccc(F)c2)c1)C1CCN(C2CCOCC2)CC1	0.6	29	0.1	0.2	1.3	-2	nt	12
O=C(OCc1ccc([N+](=O)[O-])cc1)c1ccc2ccccc2n1	0.0	5	-4.6	-1.5	-0.3	-1	22%	-7
CCCC(=O)Nc1nc(-c2ccc3c(c2)CCN3S(C)(=O)=O)cs1	0.6	2	-1.2	nt	-1.0	nt	1%	-5
O=C(NCc1cccnc1)c1cccc(C(F)(F)F)c1	-0.3	-5	4.1	nt	-0.8	-5	-1%	5
COC(CNC(=O)CCCn1nnnc1CN1CCOCC1)c1cccs1 (stereo not drawn)	nt	-11	-3.3	-0.5	nt	nt	nt	-11
O=C(O)c1cc(N2C(=O)CCC2=O)ccc1NCc1cccnc1	-0.1	-6	?	-4.8	0.6	-3	1%	20
CC1(C)Cc2noc(N)c2C(C)(C)N1OC(=O)c1scc2c1OCCO2	-1.0	-5	-0.6	nt	3.8	-6	-4%	5
CCOc1[nH]n(-c2ccccc2)c(=O)c1C=Nc1ccc(OC)cc1	0.8	-6	1.7	18	9.9	-13	5%	44
COc1ccc(CCN2CC(C(=O)N(C)CCc3cn[nH]c3)CCC2=O)cc1 (stereo not drawn)	nt	-4	-2.1	-4.7	nt	nt	nt	-3
COc1ccc(NC(=O)COC(=O)C2CCN(S(=O)(=O)c3cccs3)CC2)cc1OC	-0.5	nt	nt	0.3	0.3	1	-12%	nt
CCOC(=O)c1ccc(CNCc2ccc(Br)cc2)cc1	0.7	10	3.4	nt	-0.9	-4	nt	16
CC(C)[C@H](NS(=O)(=O)c1ccc2c(c1)OCCO2)C(=O)OCC(=O)Nc1cc(Cl)ccc1Cl	0.7	1	3.3	nt	-18	6	10%	-47
Cc1cc(C)c(NC(=O)COC(=O)C2CCCCC2)c(C)c1	-0.4	nt	nt	-11	7.2	-3	-3%	nt
C/C(=N\NC(=O)c1c(Cl)cnn1C)c1cccnc1	nt	0	-3.8	0.6	nt	nt	1%	1
CN1CCN(C2=C(Cl)C(=O)N(c3cccc(Cl)c3)C2=O)CC1	0.2	-8	0.1	nt	-6.1	-2	-1%	1
CCSC1=C(C#N)C(c2ccccc2OC)CC(=O)N1 (stereo not drawn)	-0.1	-5	0.3	-10	0.7	-7	8%	-4
CN(C)/C=C1/N=C(c2ccccc2)OC1=O	-0.4	2	-1.2	nt	0.0	-1	8%	-16
COC(=O)C(C(=O)OC)c1ccc(-n2cccc2)cc1	0.1	-9	-2.0	0.6	-2.7	-1	nt	-6
CCOC(=O)N1CC=C2C(C#N)=C(N)C(C#N)(C#N)[C@H](c3ccccc3OCC)[C@H]2C1	-0.1	-7	3.4	nt	-3.3	4	3%	5
CCCc1nc2ccc(NC(C)=O)cc2c(=O)n1Cc1cccc(Cl)c1	0.5	43	0.8	-0.9	1.3	0	-11%	0
Cc1ccccc1C(=O)N1CCC(C(=O)O)CC1	1.6	-15	?	nt	5.5	-8	11%	-14
S=C(NCc1ccco1)Nc1cc(-c2ccccc2)[nH]n1	-0.2	13	-1.4	-7.8	-1.4	-6	3%	?
COc1ccc(Nc2nccc3c2nnn3C)cc1	-0.6	-1	-3.1	nt	2.5	-4	-1%	3
COc1ccc(CCN=C(N)NS(=O)(=O)c2cccs2)cc1	1.3	1	-2.1	-1.5	-2.3	2	-11%	-13
NS(=O)(=O)c1cccc(NC(=O)CSc2nc3ccc(Cl)cc3[nH]2)c1	1.1	-15	3.8	0.1	0.4	-2	-4%	9
Cc1nc(NC(C)c2ccccc2)c2oc3ccccc3c2n1 (stereo not drawn)	-0.5	22	5.3	nt	2.5	36	-5%	0
O=C1C2C3CC(C(Br)C3Br)C2C(=O)N1c1ccccn1 (stereo not drawn)	0.9	-3	-5.9	nt	-4.1	-2	69%	-4
O=C(CN1C(=O)S/C(=C\c2ccc(Cl)cc2)C1=O)NCCCn1ccnc1	-0.2	15	2.8	6.4	-11	12	-3%	-10
CCCc1cc(C(=O)Nc2cc(C)nn2-c2ccccc2)no1	1.5	0	1.9	-2.1	6.1	-8	-1%	5
Cn1c(N)c(C(=O)c2ccc(F)cc2F)c(=O)n(C)c1=O	-0.2	-13	1.2	nt	-1.6	1	nt	6
CCC1Oc2ccccc2N(CC(=O)NC2CCCC2)C1=O (stereo not drawn)	?	-8	6.9	-9.7	1.3	-6	nt	0
OC(Cn1cncn1)(c1ccccc1)c1ccccc1	-0.2	-8	0.2	nt	-3.9	-6	24%	-4
CC(C)CCNC(=O)C1CCCN1C(=O)NC1CCCCC1 (stereo not drawn)	0.9	3	0.9	nt	0.9	-9	15%	5
N#Cc1nc(COc2ccc(Br)cc2)oc1NCCCn1ccnc1	-0.3	9	1.9	nt	1.2	-2	-4%	0
Cc1cc(C)n(-c2ccc(C(=O)OCn3nnc4ccccc4c3=O)cc2)n1	0.1	-8	1.0	nt	8.3	-3	0%	5
CN(CC(=O)Nc1ccc(Cl)cc1)CC(=O)Nc1cccc2ccccc12	-0.2	nt	nt	0.6	-5.3	1	nt	nt

(cont.)
SMILES	A1 inh	T cruzi repl	RanGTP-Imp inh	AF4-AF9 inh	LANA-H2B inh	Beta cell apopt	Vif A3G	Calb FLC
CN1CCN(C(=O)CSc2nc3ccc(NC(=O)c4ccccc4F)cc3s2)CC1	-0.5	50	0.5	7.1	1.0	-11	-5%	-1
CC(NC(=O)C1CCN(S(=O)(=O)c2ccc(Br)s2)CC1)c1ccccc1 (stereo not drawn)	0.1	4	2.1	-11	-1.6	-4	nt	-4
CCOc1cc(/C=N/NC(=O)c2cccnc2)ccc1O	0.9	-2	1.1	-1.1	9.0	1	-7%	6
Cc1cc(C)cc(NC(=O)C2CCN(C(=O)[C@@H]3Cc4ccccc4CN3)CC2)c1	-0.2	-2	2.5	-2.1	-3.2	-1	nt	-1
O=C(Nc1nnc(COc2ccccc2)s1)c1ccco1	-0.5	-4	0.3	nt	-2.3	nt	-1%	0
O=C(Nc1ccccc1C(=O)Nc1ccccn1)c1ccccc1F	0.6	-5	-0.7	0.0	1.9	-2	nt	5
COc1ccc(CCNC(=O)COC(=O)/C=C/c2cccc(F)c2)cc1	-1.5	nt	nt	1.2	-2.0	-3	nt	nt
COc1ccc(N2CCN(C(=O)Cc3nn(C)c(=O)c4ccccc34)CC2)cc1	0.1	-10	5.2	nt	2.0	7	5%	-6
Cn1c(=O)[nH]c(=O)c2c1nc(N1CCCCC1)n2C/C=N/NC(=O)c1cc(Br)ccc1O	-0.6	1	2.5	-5.7	1.9	-3	2%	12
O=C(CCc1nc2ccccc2c(=O)[nH]1)NCc1ccco1	1.4	2	?	-0.4	1.2	-4	0%	-20
CC(OC(=O)C1=COCCO1)C(=O)Nc1ccc(Oc2ccccc2)cc1 (stereo not drawn)	0.4	6	0.4	nt	-6.4	1	1%	-45
Cc1ccc(-c2ccnc(-c3ccc(O)cc3)n2)cc1	-1.3	1	-3.5	-0.7	-1.9	-9	nt	39
CCOC(=O)c1[nH]c(C)c(C(=O)N(C)Cc2ccccc2)c1C	0.6	-18	25*	nt	-3.4	3	25%	12
COc1ccc(NC(=O)CCC(=O)c2cccs2)cc1S(=O)(=O)Nc1ccc(Cl)cc1	0.8	6	0.4	-8.2	0.2	-5	-7%	39
CCCN1CCC(=O)N([C@H](CSc2ccc(Br)cc2)Cc2ccccc2)CC1	0.2	23	2.4	2.8	-1.6	-2	nt	-18
COc1ccccc1NC(=O)C1=C(C)NC(=O)NC1c1ccccc1[N+](=O)[O-] (stereo not drawn)	0.2	-5	0.3	-2.3	4.2	2	?	44
CCOc1ccccc1N(CC(=O)Nc1ccc(C)cc1)S(C)(=O)=O	0.7	-8	-3.0	nt	4.3	nt	12%	4
